# Screening results deposited in PubChem by National Center for Advancing Translational Sciences (NCATS).
# D2 ag = Beta-Arrestin HTS for Positive Allosteric Modulators of the Human D2 Dopamine Receptor: Agonists | D(2) dopamine receptor (Homo sapiens), P14416 | DiscoveRx PathHunter D2 beta-arrestin, luminescence, 90 min; 100% = 57 uM dopamine signal | activation, % (no concentration beside the values) | hit rate 0.084% among 360,000 | AID 624465, 2012; in the data active = activation above about 40%; inconclusive = about 15% to 40%; inactive = below about 15%; also: compound concentration not given in the record; the text of the record calls up to 30% inactive
# Target sequence (P14416 whole entry, looked up): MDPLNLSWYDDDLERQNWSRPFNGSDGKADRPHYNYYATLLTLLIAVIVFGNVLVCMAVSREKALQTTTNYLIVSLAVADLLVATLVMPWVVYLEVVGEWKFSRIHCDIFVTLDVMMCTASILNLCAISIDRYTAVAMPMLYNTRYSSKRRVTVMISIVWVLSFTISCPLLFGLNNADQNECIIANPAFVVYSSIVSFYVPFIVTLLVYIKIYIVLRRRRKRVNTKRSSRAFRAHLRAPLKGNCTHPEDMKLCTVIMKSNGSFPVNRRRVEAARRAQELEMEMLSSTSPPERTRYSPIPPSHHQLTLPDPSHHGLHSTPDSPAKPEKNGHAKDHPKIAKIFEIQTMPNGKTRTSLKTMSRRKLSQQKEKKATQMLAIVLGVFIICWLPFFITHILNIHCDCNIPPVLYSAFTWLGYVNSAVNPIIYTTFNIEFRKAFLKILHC
#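 Agonist mode: compounds alone added to overnight-plated D2 PathHunter cells for 90 min at 37 C, with 57 uM final dopamine (EC100) defining full response. Beta-arrestin recruitment detected by chemiluminescent reagent, read after 1 h at ambient temperature.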
# gsp antag = qHTS for Antagonists of gsp, the Etiologic Mutation Responsible for Fibrous Dysplasia/McCune-Albright Syndrome: qHTS; gsp-mutant cells, cAMP HTRF, 30 min; control for the full effect not named in the record; Potency, µM (highest dose often 76.9 µM), for inactives: top-dose activity change, negative = inhibition, most hits filed as inhibitors; hit rate 0.4% among 340,000; AID 624288, 2012; active = falling curve of any shape with a large fitted effect; inconclusive = falling curve, mostly with a smaller effect; inactive = flat or rising curve; cell line not stated here;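 also: intracellular cAMP measured with PDE inhibitor Ro 20-1724 present during compound exposure; potency is read from the fitted curve at half-maximal effect; % is scaled to controls: 0 for no effect and ±100 for the full control effect; nearly all actives have a fitted effect of over 65% in size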
#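 G418-selected cells were plated in DMEM/10% FBS for 16-24 h at 37C, then treated with compounds plus the PDE inhibitor […] (300 uM solution added) for 30 min at 37C. Intracellular cAMP was measured by HTRF after 30 min lysis at room temperature.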
# ClpP mod = qHTS Assay for Activators of ClpP. ATP-dependent Clp protease proteolytic subunit (Bacillus subtilis (strain 168)), P80244. purified B. subtilis ClpP, FRET peptide cleavage, 20 min. Potency, µM (top dose mostly 57.5 µM), without a hit: at the top dose activity change, negative = active. hit rate 1.9% among 340,000. AID 651965, 2013; active = well fitted falling curve with a large enough effect; inconclusive = small, poorly fitted or top-dose-only effect; inactive = no such curve, though single readings can be large or run the other way; also: potency is read from the fitted curve at half-maximal effect; the source files actives as falling curves though it sought activators and does not explain the sign; nearly all actives have a fitted effect of over 65% in size; many hits overshoot -100%
# Target sequence (P80244 whole entry, looked up): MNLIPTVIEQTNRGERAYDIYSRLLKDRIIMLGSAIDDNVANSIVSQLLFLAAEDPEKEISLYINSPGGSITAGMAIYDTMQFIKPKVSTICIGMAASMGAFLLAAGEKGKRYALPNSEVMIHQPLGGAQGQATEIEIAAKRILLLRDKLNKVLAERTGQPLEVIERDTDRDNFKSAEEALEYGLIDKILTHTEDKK
#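 ClpP 10 microg/mL final, pH 8 Tris/KCl buffer with BSA, glycerol, Tween-20; compound pinned in; FRET-FV substrate; RT 20 min; Ex320/Em430; ΔFRET vs ADEP 5.8 microM, DMSO, no enzyme.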
# Menin MLL FP FL = qHTS Assay for Inhibitors Targeting the Menin-MLL Interaction in MLL Related Leukemias: Competition With Fluorescein Labeled MLL-derived Peptide. FP activity change, % at 61.4 µM. Fluorescence polarization, fluorescein-MLL peptide displacement from menin. 290,000 tested, under 10 active; inconclusive = falling polarisation curve, or a change in total fluorescence; inactive = total fluorescence flat and polarisation flat or rising; no compound was filed as active; the % refers to the polarisation; negative = inhibition;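 also: % of control where 0% means no effect; inhibitors lower the polarisation; unlabelled MLL peptide was the positive control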
# Sfp PPTase inh = qHTS Assay for Inhibitors of Bacillus subtilis Sfp phosphopantetheinyl transferase (PPTase). Potency, µM, inactives show max response, negative = inhibition, most hits filed as inhibitors. hit rate 3.5% among 310,000. Biochemical Sfp PPTase activity, qHTS; active = well fitted inhibition curve with a large enough effect; inconclusive = small, poorly fitted or top-dose-only effect, or another doubt; inactive = no such curve, though single readings can be large or run the other way;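 also: the enzyme is Sfp with the accession as filed and its product quenches rhodamine fluorescence; potency is read from the fitted curve at half-maximal effect; 0% = enzyme reaction without inhibitor and -100% = no enzyme wells; top concentration of the series not given in the record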
#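 Buffer: 50 mM Hepes-Na pH 7.6, 10 mM MgCl2, 0.01% Nonidet P-40, 0.01% BSA. Enzyme 15 nM, pre-exposed to compound 15 min; substrates then added and fluorescence change tracked over 30 min.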
# gsp ag = qHTS for Agonist of gsp, the Etiologic Mutation Responsible for Fibrous Dysplasia/McCune-Albright Syndrome: qHTS. gsp mutant cells, cAMP HTRF, 30 min; control for the full effect not named in the record. Potency, µM (series often up to 76.9 µM), without a hit: top-dose activation (cAMP increase), actives largely listed as activators. hit rate 0.13% among 340,000. AID 624287, 2012; active = well fitted activation curve with a large enough effect; inconclusive = small, poorly fitted or top-dose-only effect, or another doubt; inactive = no such curve, though single readings can be large or run the other way; cell line not stated here;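 also: phosphodiesterase inhibitor Ro 20-1724 added with compounds to block cAMP breakdown; potency is read from the fitted curve at half-maximal effect; nearly all actives have a fitted effect of over 60% in size; about a fifth of the inactives were tested at one dose only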
#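 Cells stably selected in G418 were plated at 2000/well, grown 16-24 hr, then given compounds in DMSO with the PDE inhibitor […] (300 uM solution added) for 30 min at 37C; cAMP was read by HTRF.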
# PINK1 modulator = A Quantitative High throughput Screen to Identify Chemical Modulators of PINK1 Expression; Potency, µM (titrated, usually from 76.6 µM), without a hit: at the top dose activation (PINK1 increase), hits mostly activators; hit rate 0.2% among 410,000; PINK1 immunofluorescence, high-content cytometry, 24 h; active = well fitted activation curve with a large enough effect; inconclusive = small, poorly fitted or top-dose-only effect; inactive = flat fitted curve, though single readings scatter; cell line not stated here;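 also: potency is read from the fitted curve at half-maximal effect; % of control where 0% means no effect; nearly all actives have a fitted effect of over 65% in size; a mitochondrial uncoupler was the plate control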
#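 Measures PINK1 amount and localization on or inside mitochondria by immunofluorescence. Stable cells get compounds at 5 concentrations for 24 hours before fixation and staining; CCCP controls included.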
# * = called active by the depositor; ? = inconclusive; / = no result given; [ ] = dose if it differs, or a comment.
SMILES	D2 ag	gsp antag	ClpP mod	Menin MLL FP FL	Sfp PPTase inh	gsp ag	PINK1 modulator
CCCCc1[nH]c(=O)c(C#N)c2c1CSC(C)(C)C2	-3.5	4.8%	?	-14.7	-22.7%	-19.4%	1.1%[38.3 µM]
Cc1cc(C)c(C(=O)COC(=O)[C@H](C)Nc2ccc(C(F)(F)F)cc2[N+](=O)[O-])c(C)c1	-4.7	-6.6%	-1.0%	-1.7	4.6%	36.4%	-1.3%
COC(=O)c1cnc(Nc2cc(C)ccc2OC)c2ccccc12	-0.2	-11.9%	3.6%	5.4	-4.3%	-2.6%	4.8%
Cc1noc(C)c1C(=O)NNc1ccc(C(C)C)cc1	-9.8	14.3%	/	-0.5	-6.4%	-26.5%	1.2%
Cc1ccc(OS(=O)(=O)c2c(C)nn(C)c2Cl)c(C)c1	-4.2	-3.6%	1.0%	/	23.7%	2.4%	-0.2%
Cc1ccc(-n2ncc(C#N)c2N)cc1	-2.8	7.5%	-2.8%	6.4	14.8%	-43.2%[inhibitor]	-2.7%
O=C1CCCc2cc(S(=O)(=O)N3CCC(C(=O)NCc4ccccc4)CC3)ccc2N1	-1.7	9.1%	/	-6.2	9.1%	?	-0.4%
O=C(Nc1nccs1)c1cccc(N2C(=O)C3C4C=CC(C4)C3C2=O)c1 (stereo unspecified)	-0.3	-4.2%	-2.0%	0.6	0.4%	6.4%	6.9%
COc1ccc(N(CC(=O)NCc2cccc(OC)c2)S(=O)(=O)c2c(C)noc2C)cc1	-4.4	0.8%	1.6%	1.6	-2.8%	-49.3%[inhibitor]	2.7%
CC1CC(C)(C)CC2(C1)NC(=O)N(CC(=O)Nc1c(F)cccc1F)C2=O (stereo unspecified)	-1.9	9.7%	-1.3%	/	/	17.0%	-1.4%
CCOc1ccc(NC(=O)CN(C)C(=O)CSC(C)C(=O)Nc2cc(C)on2)cc1OCC (stereo unspecified)	-1.6	-1.8%	-1.2%	/	6.7%	?	-1.3%
COc1ccc(C(=O)Nc2nc(-c3ccc([N+](=O)[O-])cc3)c(-c3ccccc3)s2)cc1	1.4	7.2%	-0.5%	/	/	-33.2%[inhibitor]	-0.1%
COc1cccc(CN(C)CC(=O)Nc2c(C)cccc2C(C)C)c1	1.6	7.1%	/	3.9	9.5%	-3.5%[15.4 µM]	1.4%
COc1ccc(-c2nn(-c3ccccc3)cc2C(=O)Nc2nc(CC(C)=O)ns2)cc1	-2.7	-25.3%	11.4%	1.3	10.6%	-6.2%	1.6%
NNC(=O)c1cc(C23CC4CC(CC(C4)C2)C3)[nH]n1	-0.8	7.2%	/	4.9	10.4%	-11.7%	-1.1%
COc1cccc(/C=N/NC(=O)CNC(=O)c2cccs2)c1O	-2.5	-3.2%	/	1.1	10.2%	-7.3%[15.4 µM]	-0.1%
CC(C)(C)NS(=O)(=O)c1ccc(CCC(=O)Nc2ccc3c(c2)OCCO3)cc1	0.3	2.6%	-0.4%	2.1	8.2%	5.6%	1.0%
Oc1cccnc1CN1CCOCC1	-0.6	13.9%	0.7%	/	/	-4.0%[15.4 µM]	1.5%
CCCCNc1ncnc2c1cnn2-c1ccc(Cl)cc1	-2.8	-1.1%	-6.2%	-2.8	7.5%	-26.9%	8.4%
CCC(=O)Nc1ccc(N2CCN(Cc3ccccc3)CC2)cc1	-0.6	4.3%	-2.9%	0.0	12.1%	5.8%	0.0%
O=C(Nc1ccc2nc(-c3cccs3)c(-c3cccs3)nc2c1)N1CCOCC1	-1.0	-24.1%	-27.5%	9.8	6.8%	?	12.2%[38.3 µM]
O=C(N/N=C/c1ccc([N+](=O)[O-])o1)c1cn(-c2ccccc2)nc1-c1ccc(F)cc1	?	-1.7%	/	-0.9	-3.1%	9.5%	8.0%
COC(=O)C(C)Sc1nc2c(c(=O)n1-c1ccccc1)SCC2 (stereo unspecified)	-0.9	4.5%	0.1%	-0.3	1.0%	-53.0%[inhibitor]	-0.7%
O=S(=O)(c1ccc(Cl)cc1)n1ccc(-c2cccc(OCc3c(F)cccc3Cl)c2)n1	-2.4	7.4%	-1.5%	3.8	14.2%	1.9%	-0.5%
CC(=O)NC1CCCC(NC(C)=O)C1 (stereo unspecified)	1.4	22.6%	/	/	/	-0.3%	4.1%
CC(C)CC(NC(=O)c1ccccc1)C(=O)OCC(=O)Nc1ccc(Br)cn1 (stereo unspecified)	-2.2	-7.8%	0.8%	7.8	6.7%	6.9%	6.4%[38.3 µM]
Cc1cc(C)c(NC(=O)c2ccccc2CCc2ccccc2)c(C)c1	-2.0	9.3%	0.9%	0.3	-3.7%	-33.1%[inhibitor]	17.9%[38.3 µM]
Cc1cc(CSc2ccccc2)ccc1NC(=O)c1ccc(C)c([N+](=O)[O-])c1	1.4	-14.4%	1.3%	-4.4	1.7%	-43.7%[inhibitor]	11.6%
COC(=O)c1cccc(NC(=O)c2cccc([N+](=O)[O-])c2)c1	5.0	-0.9%	-2.4%	0.5	3.3%	1.7%[15.4 µM]	2.0%
CN1CCN(c2ncc3nc(-c4ccccc4)c(=O)n(CCc4ccccc4)c3n2)CC1	/	/	/	2.7	0.5%	/	-0.3%

SMILES	D2 ag	gsp antag	ClpP mod	Menin MLL FP FL	Sfp PPTase inh	gsp ag	PINK1 modulator
O=C(NCC(c1ccco1)N1CCc2ccccc21)c1c(F)cccc1F (stereo unspecified)	-0.5	-6.1%	/	/	/	-17.6%[15.4 µM]	3.0%
COc1cc(NC(=O)CSc2ncnc3scc(-c4ccccc4)c23)c(C(=O)O)cc1OC	-7.0	-17.0%	-1.9%	6.1	-9.1%	?	1.3%
CC(C)C(=O)Nc1ccc2nn(-c3ccccc3)nc2c1	-0.7	?	-2.8%	2.0	8.2%	-0.3%[15.4 µM]	2.5%
CCc1ccc(NC(=O)Cc2ccc(-n3cccc3)cc2)cc1	-2.0	3.8%	-0.9%	5.8	-2.2%	15.5%	0.4%
Cc1ccc(N/C(N)=N/c2nc(CSc3ccccn3)cc(=O)[nH]2)c(C)c1	3.1	-20.5%	/	4.0	3.4%	-28.5%[15.4 µM]	1.3%
COc1cccc(CCc2nnc(CCC(=O)NCCC3CCCCO3)o2)c1 (stereo unspecified)	-2.0	6.9%	-1.3%	-3.0	21.2%	-29.1%	-0.9%
Cc1ccc(S(=O)(=O)N(C)c2c(C)ccc(S(=O)(=O)N3CCN(C=O)CC3)c2C)cc1	4.3	4.2%	-13.0%	3.1	-14.1%	-14.5%	1.7%
O=C(c1cc2ccccc2oc1=O)N(c1ccc(Cl)cc1)C1C=CS(=O)(=O)C1 (stereo unspecified)	-2.8	-4.6%	1.8%	2.2	-0.8%	1.8%	2.0%
COc1ccc(CCNC(=O)C(=O)c2cn(CC(=O)N3CCOCC3)c3ccccc23)cc1OC	-0.2	10.4%	0.2%	?	-1.6%	?	2.4%
Cc1n[nH]c(C)c1S(=O)(=O)NCCc1ccc(Cl)cc1	-0.7	8.6%	-1.7%	0.9	9.6%	-11.9%	-2.3%
CCOC(=O)CSc1nc(N)c(C(=O)Nc2ccc(N(C)C)cc2)s1	-0.3	?	0.5%	-0.3	-7.5%	24.3%	2.4%[38.3 µM]
CN1CCN(c2cc(-c3cccc(C(=O)O)c3)nc3ccnn23)CC1	-3.2	/	4.5%	/	/	/	1.5%
O=C(Nc1nccs1)c1ccc(-c2ccc(F)cc2)o1	0.0	-17.2%	/	2.1	8.9%	-10.0%[15.4 µM]	-1.8%
C[C@H](CO)N1C[C@H](C)[C@@H](CN(C)S(=O)(=O)c2cccs2)Oc2c(NC(=O)C3CCCCC3)cccc2C1=O	1.2	-3.7%	-4.4%	/	/	/	0.1%
N/C(=N\OC(=O)CCC1CCCC1)c1ccccn1	-6.2	8.6%	1.0%	4.9	-7.6%	-34.5%[inhibitor]	0.2%
COc1ccc(S(=O)(=O)N2CCCCC2)cc1NC(=O)Cn1cnc2ccccc2c1=O	-0.9	0.7%	-2.6%	/	/	21.4%	1.2%
CSc1ncnc2c1ncn2CCCN[C@H](C)c1cccc2ccccc12	-8.9	/	-3.1%	/	/	-1.1%	0.4%
Cc1oc(-c2ccccc2)cc1C(N)=O	0.5	12.8%	-10.2%	-0.7	-3.8%	2.1%	0.0%
Cn1c(CCNS(=O)(=O)c2ccccc2)nnc1SCc1cccnc1	1.5	6.2%	/	-3.0	3.6%	21.8%	3.2%
Cc1ccc(C(=O)n2nc(-c3ccco3)nc2N)cc1	-3.4	2.2%	?	5.3	-6.9%	-2.2%	7.7%
Cc1c(C(=O)Nc2ccc(S(=O)(=O)Nc3ncccn3)cc2)oc2ccc(F)cc12	-0.9	-28.4%	-1.9%	-6.1	13.9%	?	1.5%
COc1cccc(OC)c1C(=O)Nn1c(-c2cccs2)nc2ccccc2c1=O	-3.2	-17.8%	-0.1%	/	2.1%	35.6%	0.1%
Cc1c(Cl)cccc1NC(CC(=O)c1ccccc1)C(=O)OCC(=O)c1cccs1 (stereo unspecified)	-3.6	8.7%	1.7%	0.0	8.91µM*	34.2%	-2.6%
COc1ncc2nc(-c3cccc(C#N)c3)c(=O)n(CCC#N)c2n1	/	/	/	9.4	13.7%	/	-1.2%
CCn1c2ccccc2c2cc(NC(=O)C(C)Oc3ccc(OC)cc3)ccc21 (stereo unspecified)	-1.1	2.7%	?	8.1	18.4%	15.4%	1.6%
CC12CN3CC(C)(CN(C1)C3c1ccc3c(c1)OCO3)C2O (stereo unspecified)	-6.1	7.2%	-4.7%	1.6	2.1%	-54.2%[inhibitor]	0.4%
COc1ccc(C(c2nnnn2C2CCCC2)N2CCN(C3CCCC3)CC2)cc1OC (stereo unspecified)	-2.8	-5.0%	?	2.5	1.6%	-9.6%	-0.6%
